Screening data deposited in PubChem by several laboratories.
Mtb growth = M. tuberculosis H37Rv growth inhibitors, H37Rv strain (AID 1626). M. tuberculosis H37Rv growth inhibition; higher % means a stronger effect. inhibition, % at 10 µM; hits with a dose series show IC50 in µM. 220,000 tested, 0.95% active;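 active = confirmed in a dose series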;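 also: bacteria incubated seven days before Alamar blue readout; 0% = bacteria only wells and 100% = bacteria with antibiotic wells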
Mtb betalactam = beta-lactam sensitization of Mtb H37Rv, H37Rv. 330,000 tested, 0.27% active. inhibition, % at 25 µM. AID 434955, 2010. M. tuberculosis H37Rv growth with meropenem, percent inhibition; hits of this screen are not shown here;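 active = about 74% or more and at least 40 points above the plate without the antibiotic, then above 30% in a dose series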;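 also: growth measured after seven days incubation then overnight dye step; 0% = bacteria only wells and 100% = bacteria with antibiotic; twin plates without the antibiotic show which effects depend on it; some results filed as inactive read as strong as hits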
YopH inh = YopH tyrosine phosphatase inhibitors, primary screen, biochemical, fluorescence Ex485/Em525 | 140,000 tested, 0.16% active | YopH tyrosine phosphatase [Yersinia enterocolitica] | inhibition, %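 (about 10 µM by stock and volumes)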 | AID 898, 2007;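 active = inhibition of 50% or more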;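 also: controls were vehicle for no effect and minimum signal wells for full effect; inactives centre near -20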
Arbovirus inh = antivirals against arbovirus infection, primary screen, cell-based, full library, 10K replicate subset | 200,000 tested, 0.37% active | arbovirus infection cell-based antiviral screen | inhibition, % at 10 µM;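 active = inhibition from about 30%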;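 also: bluetongue infection of BSR cells; cell survival read as ATP light after 72 h; 0% = infected wells without compound and 100% = uninfected wells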
RecA splice inh = Mtb RecA intein splicing inhibitors, primary screen, biochemical, fluorescence, HTS | Protein RecA (Mycobacterium tuberculosis (strain ATCC 25618 / H37Rv)), P9WHJ3 | cell-free RecA intein splicing | inhibition, %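 (about 9 µM by stock and volumes)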 | 290,000 tested, 0.75% active; in the data active = inhibition above about 30%;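 also: 0% = vehicle wells and 100% = reference inhibitor control wells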
Target sequence (P9WHJ3 whole entry, looked up, canonical isoform): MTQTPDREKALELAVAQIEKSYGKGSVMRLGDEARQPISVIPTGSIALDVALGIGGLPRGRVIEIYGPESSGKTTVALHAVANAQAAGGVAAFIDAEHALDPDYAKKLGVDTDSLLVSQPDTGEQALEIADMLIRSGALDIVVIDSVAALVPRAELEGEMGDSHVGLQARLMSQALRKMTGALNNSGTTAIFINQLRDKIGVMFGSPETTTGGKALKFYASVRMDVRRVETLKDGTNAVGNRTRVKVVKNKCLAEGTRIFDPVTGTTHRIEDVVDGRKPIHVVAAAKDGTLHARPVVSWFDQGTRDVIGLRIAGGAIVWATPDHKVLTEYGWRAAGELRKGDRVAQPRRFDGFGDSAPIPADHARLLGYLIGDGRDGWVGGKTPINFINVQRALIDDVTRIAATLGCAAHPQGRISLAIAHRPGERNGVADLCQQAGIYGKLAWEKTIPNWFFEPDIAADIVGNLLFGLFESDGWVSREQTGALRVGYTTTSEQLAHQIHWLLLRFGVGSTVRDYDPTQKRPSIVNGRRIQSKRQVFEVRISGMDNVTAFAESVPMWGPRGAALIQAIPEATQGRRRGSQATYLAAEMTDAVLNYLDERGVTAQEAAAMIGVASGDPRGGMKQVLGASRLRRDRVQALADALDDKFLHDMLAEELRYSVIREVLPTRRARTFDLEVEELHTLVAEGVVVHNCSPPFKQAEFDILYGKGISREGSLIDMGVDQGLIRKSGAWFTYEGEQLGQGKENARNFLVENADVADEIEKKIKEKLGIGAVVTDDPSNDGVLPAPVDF
Arbovirus inh repeat = recorded beside Arbovirus inh, whose call it bears; inhibition, %; measured here: 10K subset replicate screen; many hits read low in the repeat;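 first of two repeat runs on a subset; 0% = infected and 100% = uninfected wells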
An asterisk follows results filed as active; · = not tested or not shown. Some of the compounds tested. The share of hits here may be higher or lower than overall.

SMILES	Mtb growth	Mtb betalactam	YopH inh	Arbovirus inh	RecA splice inh	others
CCOc1cccc(C=Nc2cc(C)cc(C)c2O)c1O	-6%	90	-62	-13	-3.4
COc1ccc(Cn2c(O)c(/C=N/NC(=O)c3cccnc3)c3ccccc3c2=O)cc1	5%	·	·	-21	-13
Cc1onc(-c2ccccc2Cl)c1C(=O)Nc1nnc(-c2ccc(Br)cc2)s1	14%	0	-43	-1	5.4
COc1ccc2cc(/C(C)=N/NC(=O)C3CC3)ccc2c1	8%	-7	·	-6	-0.1
CC(C)Cc1csc(NC(=O)c2ccc(Br)cc2)c1C(=O)O	-3%	4	·	·	3.1
O=C(CSc1nc2c(c(=O)[nH]1)CCC2)Nc1ccccc1Cl	·	3	·	·	-2.3
CN(C)S(=O)(=O)c1ccc(C(=O)Nc2cccc(C(=O)O)c2)cc1	10%	-3	-11	1	3.7
O=C(Cn1ncc(Cl)c(Cl)c1=O)NC1CCS(=O)(=O)C1 (centres undefined)	-4%	-8	·	·	25
COC(=O)c1ccccc1NC(=O)Cn1c(=O)n(CCC(=O)NC2CCN(Cc3ccccc3)CC2)c(=O)c2ccccc21	2%	34	·	·	-18
COc1cc(Br)cc(-c2nc3c(c(=O)[nH]c(=O)n3Cc3ccccc3)n2C)c1O	7%	11	-31	53*	9.7	Arbovirus inh repeat=22*
COc1ccc(OC(C)c2ccc(C#N)c(=O)[nH]2)cc1 (centres undefined)	-2%	6	·	9	-2.3
COc1ccc(OC)c(NC(=O)COC(=O)Cc2ccc(Br)cc2)c1	·	0	·	-1	3.0
COC(=O)c1cccc(NC(=O)CSc2nc(O)c(-c3ccccc3)c(=O)[nH]2)c1	-7%	81	·	-2	0.4
CC(C)(C)C(=O)Nc1ccc(C(=O)Nc2cccc(Oc3ccc(C(=O)O)c(C(=O)O)c3)c2)cc1	·	-7	·	·	2.5
N#Cc1c(NC(=O)CSc2nc3ccccc3c(=O)n2Cc2ccco2)sc2c1CCCC2	-1%	90	·	·	7.6
CC(=O)Nc1ccc(NC(=S)NC(=O)/C=C/c2ccccc2)cc1	0%	-7	·	-1	-0.2
Cc1ccc(SC[C@H](Cc2ccccc2)N2CCN(C)CCC2=O)cc1	-7%	·	·	·	1.2
Cc1cc(C)nc(SCc2csc(-c3ccccc3)n2)n1	10%	0	-16	17	8.9
S=C(NCc1ccccc1)Nc1cccc(Cl)c1	8%	-7	-27	7	2.2
COc1cccc2c(=O)n(CC(=O)Nc3ccc(F)cc3)ccc12	6%	8	-32	2	0.5

Grouped by structure: the compounds so far containing a cyano group (two)
SMILES	Mtb growth	Mtb betalactam	YopH inh	Arbovirus inh	RecA splice inh	others
COc1ccc(OC(C)c2ccc(C#N)c(=O)[nH]2)cc1 (centres undefined)	-2%	6	·	9	-2.3
N#Cc1c(NC(=O)CSc2nc3ccccc3c(=O)n2Cc2ccco2)sc2c1CCCC2	-1%	90	·	·	7.6

Returning to the listing, starting 5 compounds before the break.
SMILES	Mtb growth	Mtb betalactam	YopH inh	Arbovirus inh	RecA splice inh	others
CC(=O)Nc1ccc(NC(=S)NC(=O)/C=C/c2ccccc2)cc1	0%	-7	·	-1	-0.2
Cc1ccc(SC[C@H](Cc2ccccc2)N2CCN(C)CCC2=O)cc1	-7%	·	·	·	1.2
Cc1cc(C)nc(SCc2csc(-c3ccccc3)n2)n1	10%	0	-16	17	8.9
S=C(NCc1ccccc1)Nc1cccc(Cl)c1	8%	-7	-27	7	2.2
COc1cccc2c(=O)n(CC(=O)Nc3ccc(F)cc3)ccc12	6%	8	-32	2	0.5
COc1cccc(-n2c(N)c(-c3nc4ccccc4[nH]3)sc2=S)c1	10%	48	·	-5	2.5
O=C(NC1CC1)c1ccc2c(Cl)c3c(nc2c1)CCCC3	-1%	2	·	-5	6.2
O=C(Nc1sc2c(c1C(=O)O)CCCC2)C(=O)N1CCOCC1	·	-6	·	·	1.4
O=C(Nc1ccccc1C(=O)NCCc1ccc(O)cc1)c1ccco1	·	-2	·	·	0.6
O=C(CSc1ncccn1)NCc1ccc2c(c1)OCO2	·	-3	·	·	0.1
O=C(CSc1ncn[nH]1)NCCc1ccc(Cl)cc1Cl	·	-8	·	·	2.1
S=c1[nH]nc(Cn2cnc3ccccc32)n1-c1ccccc1	-2%	-10	·	1	-2.4
O=[N+]([O-])c1cc(-n2cnnn2)ccc1N1CCC(Cc2ccccc2)CC1	15%	11	-13	-3	5.9
Clc1cccc(NCc2ccccc2)n1	0%	0	·	-4	1.7
O=[N+]([O-])c1cccc(S(=O)(=O)c2ccc(NCCO)c([N+](=O)[O-])c2)c1	-1%	0	·	1	-2.0
COc1ccc(OC)c(CCNC(=O)CN2C(=O)CCSc3ccccc32)c1	·	0	·	·	-2.1
O=C1CCC(C(=O)N2CCc3ccccc3C2)CN1CCCN1CCOCC1 (centres undefined)	·	-8	·	·	-0.6
O=C(O)C1CC=CCC1C(=O)Nc1cccnc1 (centres undefined)	-4%	-2	·	3	-4.9
CCOC(=O)C1CCCN(C(=O)c2cc3cc4ccc(OC)cc4nc3o2)C1 (centres undefined)	·	3	·	·	8.5
Cc1ccc(CNc2ccc3nnc(-c4ccccc4)n3n2)cc1	·	3	-27	-12	2.6
Cc1c(NC(=O)c2cc(C(C)C)on2)c(=O)n(-c2ccccc2)n1C	2%	-3	-10	0	3.1
Cc1nnc(SCC(=O)Nc2nsc(-c3ccc(C(C)(C)C)cc3)n2)s1	7%	15	-37	-1	9.3
COc1ccc(CCCc2nnc(SCC(=O)Nc3ccccc3F)o2)cc1	-13%	-2	·	-2	1.9
Cc1nc(SCC(=O)Nc2ccccn2)n[nH]1	-3%	-9	·	5	-4.4
CC(=O)NC(CCS(C)(=O)=O)C(=O)Nc1ccccc1 (centres undefined)	80%	-5	0	7	-0.3

Next section (5 carried over from the part before).
SMILES	Mtb growth	Mtb betalactam	YopH inh	Arbovirus inh	RecA splice inh	others
Cc1c(NC(=O)c2cc(C(C)C)on2)c(=O)n(-c2ccccc2)n1C	2%	-3	-10	0	3.1
Cc1nnc(SCC(=O)Nc2nsc(-c3ccc(C(C)(C)C)cc3)n2)s1	7%	15	-37	-1	9.3
COc1ccc(CCCc2nnc(SCC(=O)Nc3ccccc3F)o2)cc1	-13%	-2	·	-2	1.9
Cc1nc(SCC(=O)Nc2ccccn2)n[nH]1	-3%	-9	·	5	-4.4
CC(=O)NC(CCS(C)(=O)=O)C(=O)Nc1ccccc1 (centres undefined)	80%	-5	0	7	-0.3
COc1ccc(C)cc1NC(=O)CCNC(=O)c1ccco1	·	-4	·	·	-1.6
CCCCCCCc1c(O)nc(SCCN(C)C)[nH]c1=O	2%	-15	·	·	-3.8
COc1cc2nc(/C=C/c3cc(OC)c(OC)c(OC)c3)sc2cc1SC	6%	63	-21	6	·
O=C(COC(=O)CCc1nc2ccccc2s1)Nc1ncc(Cl)cc1Cl	2%	-2	-19	7	3.1
Cc1ccc(N2C(=O)NC(=O)/C(=C/c3ccc(OC(=O)c4cccs4)cc3)C2=O)cc1	4%	93	-36	6	34*
O=C(CNC(=O)c1ccccc1F)N/N=C/c1cccnc1	·	6	·	·	-1.4
COC(=O)CCCC1=CC2=CC(=O)C(C)(OC(=O)c3cccs3)C(=O)C2=CO1 (centres undefined)	-8%	-5	·	·	-6.1
Cc1cccc(C)c1NC(=O)C1(N2C(=O)CC2c2ccccc2)CCCCC1 (centres undefined)	1%	-3	-20	8	1.4
COc1ccc(C(=O)OCC[N+]2(C)CCOCC2)cc1	-1%	-5	·	-6	-0.5
CCOC(=O)c1n[nH]n(-c2cc(Cl)cc(Cl)c2)c1=O	-11%	30	·	·	·
COc1ccc(N2C(=O)CC(Sc3nc(C)cc(C)n3)C2=O)cc1OC (centres undefined)	·	-6	·	·	3.0
Oc1ccccc1CNn1cnnc1	-9%	-6	-25	5	0.6
Cc1ccc(N(CC(=O)NN=C2CCN(C)CC2)S(=O)(=O)c2ccc(C)cc2)cc1	-8%	5	·	-13	3.4
COc1ccc(CNC(=O)Cn2nc(C(F)(F)F)cc2C)cc1	-3%	10	·	-1	·
CN(C(=O)COC(=O)c1nc(Cl)ccc1Cl)c1ccccc1	·	-6	·	·	-4.0
COc1ccc(C)cc1NC(=O)c1c([N+](=O)[O-])cnn1C	·	2	·	·	1.5
COc1cccc(OCC(=O)NNC(=O)c2cnccn2)c1	-2%	9	-20	-3	-0.8
O=C(CN(CC(=O)N1CCOCC1)S(=O)(=O)c1ccc(Br)s1)N1CCOCC1	·	1	8	7	-1.4	Arbovirus inh repeat=-2
Cc1cc(=O)oc2cc(NC(=O)c3ccccc3Cl)ccc12	·	25	·	·	-1.1
CC(=O)C1=C(O)C(=O)N(c2ccc(Br)cn2)C1c1ccccc1F (centres undefined)	0%	-1	-58	-1	-0.4

Filtered by structure, those above containing a nitro group on carbon (three)
SMILES	Mtb growth	Mtb betalactam	YopH inh	Arbovirus inh	RecA splice inh	others
O=[N+]([O-])c1cc(-n2cnnn2)ccc1N1CCC(Cc2ccccc2)CC1	15%	11	-13	-3	5.9
O=[N+]([O-])c1cccc(S(=O)(=O)c2ccc(NCCO)c([N+](=O)[O-])c2)c1	-1%	0	·	1	-2.0
COc1ccc(C)cc1NC(=O)c1c([N+](=O)[O-])cnn1C	·	2	·	·	1.5

Continued:
SMILES	Mtb growth	Mtb betalactam	YopH inh	Arbovirus inh	RecA splice inh	others
CN(CCC#N)C(=O)COC(=O)c1cc(Cl)cc(Cl)c1N	0%	-3	·	5	-4.9
CSCCC(=O)N(C)CC1CCN(CCc2cccc(C(F)(F)F)c2)CC1	·	6	·	·	-2.8
O=C1C=C(NCc2ccc(Cl)c(Cl)c2)CC1	-4%	-10	-14	-31	-0.1
CN(CC(=O)Nc1cccc(F)c1)C(=O)c1cc(-c2cccs2)nn1-c1ccccc1	·	-2	·	·	5.2
Cc1ccc2c(c1)N(C(=O)CCC(=O)N1CCN(c3ccccn3)CC1)CC(C)O2 (centres undefined)	·	1	·	·	1.5
C=CCNCc1cc(=O)n2c(-c3ccccc3)csc2n1	·	-1	·	·	-1.5
N#C/C(=C(/O)Cc1cccc2ccccc12)c1nc2ccccc2s1	-12%	9	-11	-15	0.3
Cc1cc(N2CCCC2)ccc1NC(=O)COc1cccc(C(F)(F)F)c1	·	-3	·	·	1.5
O=[N+]([O-])c1cccc(-c2nc(-c3ccccn3)no2)c1	-6%	-5	·	·	3.1
c1ccc(Cn2nnnc2C(c2ccccn2)N2CCN(c3ccccc3)CC2)cc1 (centres undefined)	-7%	-1	-25	9	6.6
C/C(Nc1ccc(F)cc1)=C(/C#N)C(N)=O	-1%	-5	-21	11	-0.1
CCS(=O)(=O)c1nc(NC(C)=O)n[nH]1	-5%	-7	6	2	-18
